# VACV Venus inh – inhibitors of vaccinia virus (Venus reporter); Vaccinia virus Venus reporter expression, fluorescence; 0.46% of 330,000 active; Potency, µM (doses to about 36.5 µM), for inactives: at the highest dose activity change, negative = inhibition, most hits filed as inhibitors; AID 720580; active means well fitted inhibition curve with a large enough effect; inconclusive means small, poorly fitted or top-dose-only effect; inactive means no such curve, though single readings can be large or run the other way; tested in A549 cells; further: nearly all actives have a fitted effect of over 30% in size; inactives centre near -10
# VACV mCherry inh – inhibitors of vaccinia virus infection (mCherry reporter signal) | Vaccinia virus mCherry reporter infection, fluorescence; about a quarter of the inactives have no number | Potency, µM (series often up to 36.5 µM), for the others: at the highest dose activity change, negative = inhibition, actives largely listed as inhibitors | 0.63% of 310,000 active; active = well fitted inhibition curve with a large enough effect; inconclusive = small, poorly fitted or top-dose-only effect; inactive = no such curve, though single readings can be large or run the other way; tested in A549 cells; further: nearly all actives have a fitted effect of over 35% in size; inactives centre near -10
# The depositor's hits bear a star; i = inactive; u = inconclusive; x = no result given; & = joins results of further samples; [ ] = remark or other dose. On the % scale 0 is the no-effect control and ±100 the full control effect; potency means the concentration at half of the fitted maximal effect.
# Start of the data: the first 14 compounds as a preview:
SMILES,VACV Venus inh,VACV mCherry inh
CCCn1cc(CN2CCC(Cc3ccccc3)(C(=O)OCC)CC2)c(C)n1,-7%,i
COc1ccc(CCNc2nc3c(-c4cccc(C(F)(F)F)c4)nnn3c3ccccc23)cc1OC,1%,4%
CCOC(=O)N1CCN(S(=O)(=O)c2ccc(OCC(=O)OC)c(C)c2)CC1,-5%,-6%
Cc1[nH]c(C)c(S(=O)(=O)NCc2ccc(Cl)cc2)c1C(=O)N1CCCC1,-11%,-14%
CCN(CC)CCCNC(=O)c1cn(C)c2ccc(S(=O)(=O)N(C)C)cc2c1=O,3%,-3%
Cc1ccc(-c2nnn(CC(=O)N3CCCCC3)n2)cc1,-16%,-13%
O=C(COc1cccc(Br)c1)Nc1ccc(Cl)c(S(=O)(=O)N2CCOCC2)c1,-8%,-23%
Cc1csc(SCC(=O)N(c2ccccc2)C(C)C)n1,-16%,i
COc1cc(CCC(=O)Nc2cccc(C(F)(F)F)c2)cc(OC)c1OC,-11%,-19%
O=C(CCNS(=O)(=O)c1ccc(Cl)cc1)Nc1ccncc1,-15%,-18%
CCOC(=O)N1CCC2(CC1)C(C#N)=C(N)Oc1c2c(C)nn1-c1cccc(Cl)c1,0%,-20%
O=C(c1ccco1)N1CCN(c2ncnc3scc(-c4ccc(F)cc4)c23)CC1,-26%,-28%
COc1cccc(-c2nc3cc(SC)ccc3cc2CN(C(=O)c2csc(C)n2)C2CC2)c1,12%,-7%
COc1ccc(NC(=O)CSc2nc(C)cc(C)n2)cc1,-13%,x

# The listing, from the start:
SMILES,VACV Venus inh,VACV mCherry inh
CCCn1cc(CN2CCC(Cc3ccccc3)(C(=O)OCC)CC2)c(C)n1,-7%,i
COc1ccc(CCNc2nc3c(-c4cccc(C(F)(F)F)c4)nnn3c3ccccc23)cc1OC,1%,4%
CCOC(=O)N1CCN(S(=O)(=O)c2ccc(OCC(=O)OC)c(C)c2)CC1,-5%,-6%
Cc1[nH]c(C)c(S(=O)(=O)NCc2ccc(Cl)cc2)c1C(=O)N1CCCC1,-11%,-14%
CCN(CC)CCCNC(=O)c1cn(C)c2ccc(S(=O)(=O)N(C)C)cc2c1=O,3%,-3%
Cc1ccc(-c2nnn(CC(=O)N3CCCCC3)n2)cc1,-16%,-13%
O=C(COc1cccc(Br)c1)Nc1ccc(Cl)c(S(=O)(=O)N2CCOCC2)c1,-8%,-23%
Cc1csc(SCC(=O)N(c2ccccc2)C(C)C)n1,-16%,i
COc1cc(CCC(=O)Nc2cccc(C(F)(F)F)c2)cc(OC)c1OC,-11%,-19%
O=C(CCNS(=O)(=O)c1ccc(Cl)cc1)Nc1ccncc1,-15%,-18%
CCOC(=O)N1CCC2(CC1)C(C#N)=C(N)Oc1c2c(C)nn1-c1cccc(Cl)c1,0%,-20%
O=C(c1ccco1)N1CCN(c2ncnc3scc(-c4ccc(F)cc4)c23)CC1,-26%,-28%
COc1cccc(-c2nc3cc(SC)ccc3cc2CN(C(=O)c2csc(C)n2)C2CC2)c1,12%,-7%
COc1ccc(NC(=O)CSc2nc(C)cc(C)n2)cc1,-13%,x
Cc1ccc(CN(Cc2ccccc2)C(=S)NCC(=O)NCc2cccnc2)o1,3%,-5%
O=C(/C=C/c1ccc([N+](=O)[O-])cc1)NCc1cccnc1,-2%,i
NC(=O)c1ccc(NC(=O)COC(=O)/C=C/c2cccs2)cc1,-3%,3%
Cc1noc(COc2ccc(OCc3nc(C)no3)cc2)n1,u,x
C=CCN1CC(O)=C(c2ccccc2)C1=N,-7%,i
c1ccc2[nH]cnc2c1,-19%,-17%
CCOc1ccc(Oc2c(/C=N/NC(C)=O)c(C)nn2-c2ccccc2)cc1,-17%,-9%
CCOC(=O)CSC(CC)C(=O)Nc1nnc(CC)s1 (stereo not drawn),2%,i
COc1cccc(OC)c1C(=O)OCC(=O)NCC1CCCCC1,-15%,-5%
Cc1ccc(-n2ncc3c(NCc4ccco4)ncnc32)c(C)c1,-19%,-27%
CCC(C(=O)NCc1ccco1)N(C(=O)CNS(=O)(=O)c1ccc(C)cc1)c1ccccc1F (stereo not drawn),6%,i
CN1CCN(C(=S)NC(=O)/C=C/c2cccs2)CC1,-15%[7.34 µM],i[7.34 µM]
COc1ccc(CNC(=O)c2cc3oc4ccccc4c3n2C)cc1OC,2%,-6%
Cc1cc2nc(C3CCCCC3)c(CC(C)(C)C)n2c(C)c1Br,1%,39%[activator]
Cc1cc(C)cc(Cn2c3ccc(NC(=O)NCc4ccccc4)cc3c(=O)n2C)c1,-19%,13%
O=C(Nc1cccc(C(=O)N2CCOCC2)c1)C1CC1,8%,-1%
CCCOc1ccc(S(=O)(=O)n2cc(Br)c(=O)[nH]c2=O)cc1,-17%,-28%
Cc1ccc(C2(C)NC(=O)N(CC(=O)NC(=O)NC(C)(C)C)C2=O)cc1 (stereo not drawn),2%,-9%
O=C(CSc1ncnc2sc3c(c12)CCC3)N1CCOCC1,-9%,i
Cc1cc(C)nc(NS(=O)(=O)c2ccc(NC(=S)NC(=O)CC(C)C)cc2)n1,11µM*,11µM*
O=C(O)CC1(CC(=O)Nc2ccccc2C(=O)c2ccccc2)CCCC1,5%,i
COc1cccc(N(CC(=O)NCCSc2ccccn2)S(=O)(=O)c2ccccc2)c1,-15%,-12%
O=C1C(c2[nH]c3ccc(S(=O)(=O)O)cc3c2O)=Nc2ccc(S(=O)(=O)O)cc21,-12%,29%
CN1CCN(S(=O)(=O)c2cccc(C(=O)Nc3ccccc3N3CCCC3)c2)CC1,-4%,-18%
Cc1c(S(=O)(=O)N2CCOCC2)c(=O)n(C)c(=O)n1C,7%,i
N/C(=N\OC(=O)c1cccc(Br)c1)c1ccc(Br)cc1,-22%,-6%
CCCn1c(SC(C)C(=O)NC2CCCC(C)C2C)n[nH]c1=O (stereo not drawn),-26%,i
CCCn1nc2cc(C(=O)N(CC)c3ccc(OC)cc3)ccc2c1OCC,-21%,-25%
COc1ccc(-c2ccc(C(=O)Nc3cccc(N(C)C)c3)c3occc23)c(C)c1,-18%,0%
COc1cc(O)c2c(c1)OC(C)(C)CC2=O,1%,-4%
Cc1nnc(SC(C)C(=O)NC2CCCCC2)[nH]c1=O (stereo not drawn),-1%,-13%
O=C(c1cccc(Cl)c1)N1CCC(=O)N([C@H](COCc2cccc(Cl)c2)Cc2ccccc2)CC1,-5%,4%
O=C(c1cccs1)N1CCN(c2nc3c(F)cc(F)cc3s2)CC1,-18%,-4%
COCCCNC(=O)C[C@H]1C[C@H](C(=O)N2CCCCC2)[C@@]2(CCc3ccccc3)c3[nH]c4cc(-c5ccco5)ccc4c3CCN2C1=O,u,-26%
O=C1CC(C(=O)N2CCOCC2)C2(CCCC2)O1 (stereo not drawn),-5%,-13%
C/C(=N/OC(=O)c1ccc(F)cc1)c1ccc(C)cc1,-22%,-5%
COc1cc(NC(=S)NCCC(c2ccccc2)c2ccccc2)cc(OC)c1,52%[activator],-14%
CCN(CC(=O)Nc1ccccc1OC)Cc1csc(CC(=O)Nc2ccc(C)cc2)n1,-10%,i
CN(C)CCCNC(=S)N(CCN(C)C)Cc1cc2cc3c(cc2[nH]c1=O)OCCO3,-14%,i
CCOc1ccccc1CN1CCN(S(=O)(=O)c2ccccc2)CC1,6%,-5%
CCN(CC)C(=S)NC(=O)c1ccc(OC)c(Br)c1,u,u
Oc1ccc(C2=NN(c3ccccc3)C(c3ccc(F)cc3)C2)cc1 (stereo not drawn),u,-30%
COc1ccc(-n2nnnc2SCC(=O)Nc2cccc(C)n2)cc1OC,-13%,-14%
COCCNc1ccnc(-c2ccccc2CN(C)C)n1,-18%,-16%
CCOC(=O)c1cc(OC(=O)c2cc(Cl)ccc2OC)n(-c2ccccc2)n1,2%,0%
CCn1cc(/C=N/NC(=O)c2ccc3c(c2)OCO3)cn1,4%,-4%
# Next records follow:
SMILES,VACV Venus inh,VACV mCherry inh
COC(=O)[C@H](CC(C)C)NS(=O)(=O)N[C@@H](CC(C)C)C(=O)OC,-4%&-11%,-2%
CCn1cc(S(=O)(=O)c2ccccc2)c(=O)c2cc(F)c(N3CCCCCC3)cc21,-21%,-19%
CC1CC(C)CN(C(=O)CNS(=O)(=O)c2cccs2)C1 (stereo not drawn),-11%,-18%
CCN(CC)S(=O)(=O)c1ccc(S(=O)(=O)Nc2cc3c(cc2C(C)=O)OCO3)cc1,1%,u
CCCCN(CCCNc1ncnc2nc[nH]c12)c1ccccc1,u,u
O=C(NC(CC(=O)N1CCN(c2ccc([N+](=O)[O-])cc2)CC1)c1ccccc1)c1ccccc1Cl (stereo not drawn),-15%,-16%
Cc1nc2c(c(C)nn2C(C)(C)C)c(C)c1CCC(=O)Nc1ccc(F)cc1,-3%,-5%
COc1cccc(CNCCN2CCOCC2)c1OC,-1%,-10%
C=CCNc1nc2cc(-c3ccc(C(=O)N4CCOCC4)cc3)sc2c(=O)n1C,-25%,-6%
Cc1cc(Nc2cccc(C(F)(F)F)c2)nc2ccc(NC(=O)Cc3ccc(Cl)cc3)cc12,u,-27%
Cc1ccc(-c2csc3nc[nH]c(=O)c23)c(C)c1,-18%,-16%
Nc1c(C(=O)N/N=C/c2cccnc2)oc2nc(-c3ccco3)cc(-c3ccco3)c12,130%[activator],-11%
CC(C)c1ccc(Oc2cccc3c2S(=O)(=O)N(C2CCCC2)CC(COCc2ccccc2)O3)cc1 (stereo not drawn),-22%,u
CN(C)C(=O)c1ccc(NC(=O)Cn2nc(-c3ccccc3)c3ccccc3c2=O)cc1,-2%,-12%
COc1ccc2c(c1)cc1c(=O)n(CC(=O)NCCc3ccccc3)nc(C)n12,1%,-9%
CCn1c2ccccc2c2cc(NC(=O)c3ccc(C)c([N+](=O)[O-])c3)ccc21,2%,-2%
CC(C)Cn1c(=O)c2c(c3ccccc31)OC(C)C(=O)N2 (stereo not drawn),-3%,0%
C=C1CC2(CC(c3ccccc3)OC(c3ccccc3)C2)OC1=O (stereo not drawn),u,11µM*
COc1ccc(C(=O)NCC(=O)OCC(=O)NC(=O)NC2CCCCC2)cc1OC,-16%,-13%
Cn1c(SCC(=O)N/N=C/C=C\c2ccccc2[N+](=O)[O-])nc2ccccc21,-23%,-19%
COc1ccc(NC(=S)N2CCN(S(=O)(=O)c3ccc(OC)cc3)CC2)cc1,-19%,-10%
CC(=O)NC1(C(F)(F)F)NC(=O)N(CC(C)C)C1=O (stereo not drawn),7%,x
COc1ccc(/C=N/OCC(=O)Nn2c(C)nc3ccccc3c2=O)cc1,-16%,i
CC1CCN(c2cc(N3CCC(C)CC3)c([N+](=O)[O-])cc2/C=C(\C#N)c2nn(-c3ccccc3)c(N)c2C#N)CC1,-21%,u
COC(=O)c1ccn(-c2nc(-c3ccco3)cc(C(F)(F)F)n2)n1,-6%,-10%
COCCN1C(=O)c2ccc(C(=O)NCc3cccnc3)cc2C1=O,-16%,-28%
COc1ncnc2c1oc1ccccc12,-10%,-13%
O=C(C1CCN(CCCc2ccccc2)CC1)N1CCCCC1,18%,-16%
C#CCOCCOCCOCCNc1nc(N2CCN(C(=O)CCCCCCCCCCNC(=O)[C@@H](CCSC)n3cc(CCO)nn3)CC2)nc(N2CCN(C(=O)CCCCCCCCCCNC(=O)[C@H](CCC(=O)O)n3cc(CCCCCN)nn3)CC2)n1,-10%,-18%
CCOc1ccc(-c2cc(C(=O)N3CCCC3)c3ccccc3n2)cc1,-7%,-14%
Cc1cc(N2CCN(C(=O)Nc3ccc(F)cc3F)CC2)c2ccccc2n1,-11%,-19%
CCOC(=O)c1ccc(NCCc2ccc(OC)c(OC)c2)c(N)c1,-5%,-2%
COC(=O)[C@]12CCCCC=C1N(Cc1ccc3c(c1)OCO3)C(=O)[C@H](CC(=O)N1CCSCC1)C2,-4%,-2%
CCN(CC)c1ccc(C=C2C(=O)OC3(CCCCC3)OC2=O)cc1,-1%,i
Cc1nc2ccccc2c2oc(C(=O)N3CCN(C(=O)c4ccco4)CC3)cc12,0%,5%
O=c1[nH]c2ccc(NC(=S)NC3CCCCC3)cc2[nH]1,-2%,-4%
CCN(CC)CCN1Cc2ccccc2C1=N,-1%,-14%
CC[C@H]1OC(=O)[C@H](C)C(=O)[C@H](C)[C@@H](O[C@@H]2O[C@H](C)C[C@H](N(C)C)[C@H]2O)[C@](C)(OC)C[C@@H](C)C(=O)[C@H](C)[C@H]2N(CCCCn3cnc(-c4cccnc4)c3)C(=O)O[C@]12C,-8%,-14%
S=C(NCCN1CCOCC1)C(=S)NCCN1CCOCC1,-11%,-18%
CC(C)Cc1nc2cc(NS(=O)(=O)N(C)C)cc(C(=O)N3CCN(c4ccccc4)CC3)c2n1C,u,i
COc1ccc(C2c3c(oc4ccccc4c3=O)C(=O)N2CCN2CCOCC2)cc1OC (stereo not drawn),3%,i
COCCCNC(=O)/C(C#N)=C/c1c(N2CCCCCC2)nc2ccccn2c1=O,-9%,-1%
COc1cc(C2CC(=O)OC3=C2C(=O)CC(C)(C)C3)cc(OC)c1OC (stereo not drawn),1%,-8%
O=C(Nc1cccc2ccccc12)OC1C=CS(=O)(=O)C1 (stereo not drawn),u,11µM*
Cc1nc(-c2ccc(S(=O)(=O)N3CCN(c4ccccc4F)CC3)cc2)co1,0%,1%
CCCCn1c(CNC(=O)C23CC4CC(CC(C4)C2)C3)nnc1SC(C)CC (stereo not drawn),-30%,-26%

# Screening data (PubChem)

# No enrichment for hits; 0.86% or so of the library scored in one or more.
